# HSD17B inh: HSD17B dehydrogenase inhibition; recombinant HSD17B10, NADH fluorescence kinetic; many of its hits are not listed in these tables; 75,000 tested, 7.6% active; Q99714; Potency, µM (top dose mostly 57.1 µM), inactives show top-dose activity change, negative = inhibition, actives largely listed as inhibitors; AID 893; active = well fitted inhibition curve with a large enough effect; inconclusive = small, poorly fitted or top-dose-only effect; inactive = no such curve, though single readings can be large or run the other way;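 also: the protocol describes HADH2 (HSD17B10) and not the HSD17B4 of the title; nearly all actives have a fitted effect of over 70% in size; most hits overshoot -100% by far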
#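 His-tagged E. coli-expressed HADH2 at 20 nM in 100 mM Tris-HCl pH 9.0 with 0.01 % Tween-20, preincubated 15 min with compound at room temperature. Reaction with 1 mM NAD+ and 90 uM beta-hydroxybutyryl coenzyme A; NADH fluorescence (360/450 nm) read kinetically over 4 min, last minus first point.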
# Active calls of the source: *; ? = inconclusive; [ ] = another dose, or the depositor's remark. % is scaled to controls: 0 for no effect and ±100 for the full control effect; potency is read from the fitted curve at half-maximal effect.
Structure | HSD17B inh
C/C=C/c1ccc(OCCCN2C(=O)NC(C)(C)C2=O)c(OC)c1 | -2%
O=C(NCc1ccc2c(c1)OCO2)c1cccc(F)c1 | -1%
O=C(Cn1c(SCC(=O)N2CCCc3ccccc32)nc2ccccc21)N1CCCC1 | 1%
Cc1c(NC(=O)Oc2ccccc2)sc(=S)n1C | -4%
COC(=O)C(C(=O)OC)=C(/C=C/N(C)C)N(C)C | -9%
Cc1ccc(/C=c2\s/c(=C(/C#N)C(=O)N3CCCC3)n(Cc3ccco3)c2=O)s1 | -10%
Cc1cc(C)n2nc(S(=O)(=O)NC3CCCCC3)nc2n1 | 9%
O=C1CSC(c2cn(-c3ccccc3)nc2-c2cc3ccccc3oc2=O)N1Cc1ccco1 (stereo not drawn) | 32µM*
O=C(c1cc(S(=O)(=O)N2CCCCC2)ccc1F)N1CCCCC1 | 2%
COc1ccc(CN(C(=O)c2oc3ccccc3c2C)C2CCS(=O)(=O)C2)cc1OC (stereo not drawn) | 9%
O=C(O)CCc1nc(-c2ccccc2)no1 | 3%
O=C(CSCc1cccs1)N1CCCC1 | 5%
C=CCn1cnc2c(c1=O)c1nc3ccccc3nc1n2/N=C/c1cccc(OC)c1 | -1%
Brc1ccc(C2=Nn3c(nnc3-c3ccncc3)SC2)cc1 | 6%
c1ccc(-c2ccc(-c3nc(-c4ccncc4)no3)cc2)cc1 | ?
CCc1c(C)sc(NC(=O)c2cccs2)c1C(=O)OC(C)C | 32µM*
O=C(Nc1nccs1)C1CCN(S(=O)(=O)c2cnc[nH]2)CC1 | 10%
COc1ccc(C2=NOC3(CC(=O)N(c4ccc(C)cc4)C3=O)C2)c(OC)c1 (stereo not drawn) | 0%
COc1cc(NC(=O)CCn2c(=O)[nH]c3ccsc3c2=O)cc(OC)c1 | 0%
CC1C2C(c3ccccc3)N(C)C(=O)N(C)C2N(C)C(=O)N1C (stereo not drawn) | 18%
COc1cc(C(c2sc3nc(C)nn3c2O)N2CC(C)CC(C)C2)cc(OC)c1OC (stereo not drawn) | 1%
CC1CCC(C(C)C)C(OC(=O)CSc2n[nH]c(=O)[nH]c2=O)C1 (stereo not drawn) | 16%
CCOC(=O)c1cc(-c2ccccc2)sc1N | ?
Cc1ccc(-n2nnnc2SCc2nnc(-c3ccccc3Br)o2)cc1 | -20%
CCC(=O)N1CCc2cc(S(=O)(=O)NC(C(=O)NC(C)c3ccccc3)C(C)C)ccc21 (stereo not drawn) | -1%
Cn1ccnc1Sc1nc2c(c(=O)n(C)c(=O)n2C)n1C | 7%
COc1ccc(S(=O)(=O)NCCSCc2ccco2)cc1 | ?
Cc1ccc2c(c1)c(C)c(C)n2CC(O)CN1CCCCC1C (stereo not drawn) | ?
COc1ccccc1Nc1ncnc2ccccc12 | 0%
Cn1c(SC2C(=O)CC(C)(C)CC2=O)nnc1-c1ccco1 | 2%

# 16 entries out of the list, sorted by number of heavy atoms, smallest number first.
Structure | HSD17B inh
O=C(CSCc1cccs1)N1CCCC1 | 5%
O=C(O)CCc1nc(-c2ccccc2)no1 | 3%
CCOC(=O)c1cc(-c2ccccc2)sc1N | ?
Cc1c(NC(=O)Oc2ccccc2)sc(=S)n1C | -4%
COc1ccccc1Nc1ncnc2ccccc12 | 0%
O=C(NCc1ccc2c(c1)OCO2)c1cccc(F)c1 | -1%
COc1ccc(S(=O)(=O)NCCSCc2ccco2)cc1 | ?
Cn1c(SC2C(=O)CC(C)(C)CC2=O)nnc1-c1ccco1 | 2%
CC1CCC(C(C)C)C(OC(=O)CSc2n[nH]c(=O)[nH]c2=O)C1 (stereo not drawn) | 16%
C/C=C/c1ccc(OCCCN2C(=O)NC(C)(C)C2=O)c(OC)c1 | -2%
Cc1ccc(-n2nnnc2SCc2nnc(-c3ccccc3Br)o2)cc1 | -20%
COc1ccc(C2=NOC3(CC(=O)N(c4ccc(C)cc4)C3=O)C2)c(OC)c1 (stereo not drawn) | 0%
Cc1ccc(/C=c2\s/c(=C(/C#N)C(=O)N3CCCC3)n(Cc3ccco3)c2=O)s1 | -10%
COc1cc(C(c2sc3nc(C)nn3c2O)N2CC(C)CC(C)C2)cc(OC)c1OC (stereo not drawn) | 1%
CCC(=O)N1CCc2cc(S(=O)(=O)NC(C(=O)NC(C)c3ccccc3)C(C)C)ccc21 (stereo not drawn) | -1%
O=C1CSC(c2cn(-c3ccccc3)nc2-c2cc3ccccc3oc2=O)N1Cc1ccco1 (stereo not drawn) | 32µM*

# Continuation.
Structure | HSD17B inh
CCOc1cc(NC(=O)c2cnccn2)c(OCC)cc1NC(=O)c1ccc(OC)cc1 | -1%
CC1=C(C(=O)NCc2ccccc2)C(c2ccccc2OCC(N)=O)NC(=O)N1 (stereo not drawn) | ?
CCn1c(=O)c(-c2ccccc2)c(O)c2ccccc21 | -3%
O=C(NC1CCCCC1)N1CCN(Cc2nc3ccccc3c(=O)[nH]2)CC1 | -2%
CCOc1ccc(N2C(=O)CC(SCCN)C2=O)cc1 (stereo not drawn) | -3%
COCc1nc2ccccc2n1CCCOc1ccccc1 | -6%
C1=CCC(/C=N/n2cnnc2)CC1 (stereo not drawn) | 12%
C=CCn1c(SCC(=O)Nc2ccc(N(C)C)cc2)nnc1-c1cccc(C)c1 | -6%
CCOc1ccc(-c2nnn(CC(=O)Nc3cc(OC)cc(OC)c3)n2)cc1OCC | -4%
COc1cc(C(C)=O)ccc1OCC(=O)c1cc(C)n(C2CC2)c1C | -3%
c1ccc(-n2c(-c3ccncc3)nnc2-c2ccco2)cc1 | ?
CNC(=O)c1ccccc1-c1ccccc1 | 7%
CCCCOC(=O)C1=C(C)Nc2ncnn2C1c1cccc(OC)c1 (stereo not drawn) | 8%
O=C(Nc1ccc(-n2cnnn2)cc1)C1CCC1 | -6%
C/C=C(\C)CN1CCc2cc(OC)c(OC)cc2C1 | -11%
CCOc1cc(CNc2ncc(-c3ccc(OC)cc3)n2C)ccc1O | -26%
Cc1ccc(SCCC(=O)N(C)C)cc1 | 8%
O=C(CSc1nnc(-c2c[nH]c3ccccc23)o1)N(Cc1ccccc1)c1ccc(F)cc1 | 1%
COC(=O)C1=C(C)N(C)C(C)=C(C(=O)OC)C1c1ccc(C(=O)OC)cc1 | ?
O=C(NC1CC1)c1ccc(CS(=O)(=O)c2c(Cl)cccc2Cl)o1 | 0%
O=C1NC(NS(=O)(=O)c2ccccc2)(C(F)(F)F)C(=O)N1Cc1cccnc1 (stereo not drawn) | 0%
CCCCNS(=O)(=O)c1ccc2nc(SCC(=O)c3ccc(C#N)cc3)[nH]c2c1 | -21%
Cc1cc(C(C)(C)C)ccc1OCCN(C)C | 7%
CCOC(=O)c1ccc(NC(=O)CS(=O)(=O)c2cn(CC)c3ccccc23)cc1 | -10%
CCN(CC)S(=O)(=O)c1ccc(F)c(C(=O)NCCC(C)C)c1 | -5%
CCOCC(=O)Nc1nc2ccc(S(C)(=O)=O)cc2s1 | 1%
CCCc1cc(N2CCCC(C(=O)NCc3ccc4c(c3)OCO4)C2)n2ncnc2n1 (stereo not drawn) | 1%
Cc1noc(C)c1-c1nc(Nc2ccncc2)c2ccccc2n1 | ?
C=C1CC23C[C@H]4[C@@H]5[C@@]6(C)C[C@H](OC(=O)c7ccccc7)[C@@H](OC(C)=O)[C@]57[C@@H]2[C@@H](OC(C)=O)[C@H]1[C@@H](O)[C@H]3[C@H]7N4C6 | 2%[25.6 µM]
COc1ccccc1NC(=O)CSc1ccc2nnc(-c3ccccn3)n2n1 | -11%

Structure	HSD17B inh
O=C(CSc1ncnc2c1nnn2-c1ccc(F)cc1)NCC1CCCO1 (stereo not drawn)	-3%
CCCCCc1c(C)nc(NCc2ccccc2)[nH]c1=O	-6%
Cc1ccc(NC(=O)CSc2nnc(-c3cnccn3)n2Cc2ccco2)cc1C	-3%
CCCc1nnc(NC(=O)c2c(O)c3cccc4c3n(c2=O)CCC4)s1	10µM*
O=C(CSc1ncnc2ccccc12)N1CCCC1	0%
O=S(=O)(c1cnccc1N1CCN(CCO)CC1)N1CCCC1	8%[11.4 µM]
CC(=NCC1CCCO1)c1c(O)[nH]c(=O)[nH]c1=O (stereo not drawn)	1%
CCCc1cc(C(=O)N2CCN(c3ccccc3C)CC2)cs1	32µM*
CCOC(=O)Cc1csc(SCC(=O)c2c(N)n(CC(C)C)c(=O)n(C)c2=O)n1	10%
Cc1cc(C)c(-c2cc(C(F)(F)F)no2)c(=O)[nH]1	20µM*
O=C(CN1C(=O)c2ccccc2S1(=O)=O)N1CCc2ccccc2C1	2%
COC(=O)c1ccc(-c2nc3ccccc3o2)cc1	3.2µM*
COc1ccc(F)cc1S(=O)(=O)N1CCC(C(N)=O)CC1	-2%
COc1ccc(OC)c(NC(=O)CSc2nnc(CNC(=O)c3ccco3)o2)c1	5%
O=C(CSc1nnc(NC(=O)c2ccco2)s1)NC1CCCCC1	2%
COc1ccc(CNC(=O)CN(C(=O)c2cc3sccc3n2C)C2CCCC2)cc1	-4%
COc1ccc(C(=O)N2CCC3(CC2)CCN(c2ccncc2)CC3)cc1	5%
O=C(CN1C2CCC1CC(NC(=O)C1CC1)C2)NCc1ccccc1 (stereo not drawn)	2%
c1ccc(OCc2nc3ccccc3[nH]2)cc1	0%
CCOC(=O)C1CCCN(C(=O)c2cn(CC)c(=O)c3cc(OC)c(OC)cc23)C1 (stereo not drawn)	-8%
Clc1ccc(C(c2nnnn2C2CCCC2)N2CCSCC2)cc1 (stereo not drawn)	2%
CO[C@H]1COC(=O)[C@H]2CCCN2C(=O)C/C=C\[C@@H](C)[C@H](OC)COC(=O)C/C=C\[C@@H]1C	2%[11.4 µM]
O=P(O)(CCCCP(=O)(O)CCc1ccccc1)CCc1ccccc1	6%
COc1cc(C2C(C(=O)Nc3ccccc3OC)=C(C)Nc3ncnn32)ccc1O (stereo not drawn)	5%
CCOC(=O)C(NC(=O)N1CCCCC1)(c1ccccc1)C(F)(F)F (stereo not drawn)	4%
Cc1cc(C)nc(-n2nc(C)c3c(=O)[nH]c(C(F)(F)F)nc32)n1	3%
COc1ccc(-c2nnn(CC(=O)N(C3CCCCC3)C(C)C(=O)NC3CCCC3)n2)cc1OC (stereo not drawn)	13%
CCn1c(CSc2nc3ccccc3n2C)nc2ccccc21	0%
CC1(c2ccccc2)CC(c2ccccc2)=Nc2nonc2N1 (stereo not drawn)	-1%
Nc1nc(N)[n+]([O-])c(N)c1NCO	8%[11.4 µM]

Structure	HSD17B inh
Cc1c(N=Cc2ccc(Cl)o2)c(=O)n(-c2ccccc2)n1C	-19%
Cc1nc(SCC(=O)NCc2ccco2)c2oc3ccccc3c2n1	-11%
COc1ccc(NC(=O)C2C3C=CC4(CN(Cc5cccnc5)C(=O)C24)O3)c(OC)c1 (stereo not drawn)	-4%
CCOC(=O)c1cnc2c(Cl)cc(Cl)cc2c1NCCOCCO	-14%
N#CCSc1nnc2c(Cl)cc(Cl)cn12	-18%
CCOC(=O)CC(=O)CSc1ccc2nnc(-c3ccccc3)n2n1	?
O=C(NCCCN1CCN(c2ccccc2F)CC1)Nc1ccc(F)cc1	8%
COc1ccc(-c2csc(Cc3nnc4n3CCCCC4)n2)cc1OC	2%
O=C(NC1CCCCC1)n1c(=O)oc2ccccc21	7%
O=c1[nH]n(-c2ncnc3c2cnn3-c2ccccc2)c(=O)c2ccccc12	-7%
O=S(=O)(c1ccc(Br)c2nsnc12)N1CCOCC1	2%
COC(=O)[C@@H]1CC[C@H](C)[C@@H](c2ccc(C)cc2)N1C(=O)c1ccc(/C=N\OCC[C@@H]2C=C[C@H](OC(C)=O)[C@H](COC(C)=O)O2)cc1	0%[11.4 µM]
Cc1nn(Cc2ccccc2)c(Cl)c1C(=O)OCc1nnc(-c2ccccc2)o1	-11%
CC(C)(C)OC(=O)N1CCC[C@H]1c1nnc(SCc2ccccc2Cl)o1	3%
CCOc1ccccc1-n1c(SCC(=O)NC(C)(C)C)nnc1-c1ccoc1C	-6%
Cc1ccc(CNC(=O)CCS(=O)(=O)c2cc(Br)cc3c2N(C(=O)C2CC2)CC3)o1	-26%
O=c1oc(-c2cccnc2)nc2ccccc12	-16%
CCN=C1SC(CC(=O)NC2CCCCC2)C(=O)N1CC (stereo not drawn)	8%
C=CCc1cc(OC)ccc1OCCON1C(=O)CCC1=O	-5%
Cc1cc2cc(CN3C(=O)c4ccccc4C3=O)ccc2n1C	6%
Cc1ccc(OCC(=O)N2CCN(C3=NS(=O)(=O)c4ccccc43)CC2)cc1	4%
CCN(CCCNC(=O)C1CCN(S(=O)(=O)c2cnc[nH]2)CC1)c1cccc(C)c1	-5%
COC(=O)c1ccccc1NC(=O)CNc1cc(Cl)ccc1N1CCOCC1	-6%
COc1ccc(/C=N\NC(=O)O)cc1	-3%[11.4 µM]
CC(C)OCCCNC(=O)CNC(=O)c1cccs1	11%
CC(C)CC(N)C(=O)NC(C)C(=O)O (stereo not drawn)	-8%
CC(=O)SCCC(=O)Nc1ccccc1	-3%
Clc1ccc(Cc2nnc(-c3cccs3)o2)cc1	0%
CCOC(=O)Cn1nnnc1CN(Cc1ccccc1)Cc1cc2cc(CC)ccc2[nH]c1=O	-30%
O=C(NCC1COc2ccccc2O1)c1ccco1 (stereo not drawn)	-5%

Structure	HSD17B inh
COc1ccc(C(=O)Nc2nc3nc(-c4ccccc4)cc(=O)n3[nH]2)cc1	5%
Cc1noc(C)c1CN1C(=O)NC2(CCc3ccccc3C2)C1=O (stereo not drawn)	8%
Cc1ccc2[nH]c(=O)c(CN(Cc3ccccc3Cl)C(=O)N3CCOCC3)cc2c1	?
CCCCCC(=O)Nc1ccc(N2CCN(C(=O)CCC)CC2)cc1	13%
COc1ccccc1-c1nc(N(C)C)c2ccccc2n1	-22%
CCOC(=O)c1[nH]c(COC(=O)c2ccccc2NC(=O)c2ccco2)c(C(=O)OCC)c1C	?

# Part of the list above, set out differently.
> O=C(NC1CC1)c1ccc(CS(=O)(=O)c2c(Cl)cccc2Cl)o1
- HSD17B inh = 0%

> O=C(CSc1nnc(-c2c[nH]c3ccccc23)o1)N(Cc1ccccc1)c1ccc(F)cc1
- HSD17B inh = 1%

# Not all compounds are listed; the hit share may differ from the screen's.
